Choline anaer gr: growth inhibitors of anaerobic choline-fed gram-negatives, minimal medium, absorbance. Gram-negative bacterium anaerobic choline minimal medium; active compounds read low; many inactives read as strong as hits in the columns shown. calls only. 0.2% of 55,000 active. AID 1963822, 2024;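 active = growth z-score on choline under -2 at 7 or 20 h with little or no fall on glycerol, limits in tiers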;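 also: stock transfer was 300 nL into about 50 µL; the organism is E. coli; final concentration not given here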
Choline anaer gr early: recorded beside Choline anaer gr, whose call it bears; z-score; measured here: choline growth z-score, timepoint 1;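 score of optical density at 7 h as mean of two plates; lower means less growth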
* hit, by the source's call. An excerpt. The share of hits here may be higher or lower than overall.

What do the screens show for `O=C(c1ccc(CS(=O)(=O)c2ccccc2)cc1)N1CCC(c2nc(-c3ccccc3)no2)CC1`?
Choline anaer gr: inactive; Choline anaer gr early: 0.46

What do the screens show for `Cc1c(C(=O)Cn2cnc3nc4c(cc3c2=O)CC(C)CC4)c2ccccc2n1C` (configuration not stated)?
Choline anaer gr: inactive; Choline anaer gr early: -0.94

How did Cc1nc(-c2cccc(N3CC(C(=O)Nc4ccc(Br)cc4F)CC3=O)c2)no1 (configuration not stated) do in these assays?
Choline anaer gr: inactive; Choline anaer gr early: 1.5

What do the screens show for `Cc1nc(-c2ccccc2)c(C(=O)O)s1`?
Choline anaer gr: inactive; Choline anaer gr early: -0.12

Results for CCC(CC)C(=O)Nc1cccc(OCc2cc(=O)n3ccccc3n2)c1 ?
Choline anaer gr: inactive; Choline anaer gr early: 7.4

How did CCOc1ccccc1NC(=O)CCS(=O)(=O)c1ccc2c(c1)CC(=O)N2C do in these assays?
Choline anaer gr: inactive; Choline anaer gr early: 0.65

How did CC1CS(=O)(=O)N(c2ccc(S(=O)(=O)N3CCOCC3)cc2)C1=O (configuration not stated) do in these assays?
Choline anaer gr: inactive; Choline anaer gr early: -0.98

Results for Cc1ccc2c(c1)N(C(=O)CSc1nnc3c4sc(N5CCCC5)nc4ncn13)CCO2 ?
Choline anaer gr: inactive; Choline anaer gr early: -0.41

What do the screens show for `O=C1COc2ccc(S(=O)(=O)N3CCCC3C(=O)N3CCc4ccccc4C3)cc2N1` (configuration not stated)?
Choline anaer gr: inactive; Choline anaer gr early: 0.21

What do the screens show for `COc1ccc(N2C(=O)CC(c3ccc(OC)c(OC)c3)CC2=O)cc1`?
Choline anaer gr: inactive; Choline anaer gr early: 2.4

What do the screens show for `COc1ccc(-c2cc(OC(=O)c3ccc(Cl)cc3)c3c(C)oc(C)c3c(=O)c2)cc1OC`?
Choline anaer gr: inactive; Choline anaer gr early: 0.19

How did CCN1CCN(C2(CNC(=O)CC(C)C)CCCCC2)CC1 do in these assays?
Choline anaer gr: inactive; Choline anaer gr early: 0.48

Results for Cc1ccc(-n2nnnc2CNC(=O)Nc2cccc(C)c2)cc1 ?
Choline anaer gr: inactive; Choline anaer gr early: -0.41

How did COc1ccc(CCNC(=O)CCC(=O)N2CCCn3nc(C)cc32)cc1OC do in these assays?
Choline anaer gr: inactive; Choline anaer gr early: -0.32

What do the screens show for `CCCn1c(=O)c2ccccc2n2c(=O)n(CC(=O)Nc3cc(F)ccc3F)nc12`?
Choline anaer gr: inactive; Choline anaer gr early: 1.9

Results for CCCn1nnc(NCc2ccc(-c3ccc(C)c(Cl)c3)o2)n1 ?
Choline anaer gr: inactive; Choline anaer gr early: -0.51

Results for O=C(NC1CC1)C1CCCN(c2ccc3cc(S(=O)(=O)N4CCCC4)ccc3n2)C1 (configuration not stated) ?
Choline anaer gr: inactive; Choline anaer gr early: -0.79

What do the screens show for `O=C(NC1CCCC1)N1CCN(C(=O)c2nsc3ccccc23)CC1`?
Choline anaer gr: inactive; Choline anaer gr early: -0.41

How did Cn1c(CCc2cccc(NC(=O)CN3C(=O)COc4ccccc43)c2)nc2ccccc21 do in these assays?
Choline anaer gr: inactive; Choline anaer gr early: 0.78

Results for Cc1ccc(C)c(Cn2cccc(C(=O)N3c4ccccc4CC3C)c2=O)c1 (configuration not stated) ?
Choline anaer gr: inactive; Choline anaer gr early: -0.45

Results for Cc1nn2c(NC(C)C)cc(C(C)(C)C)nc2c1-c1ccc(F)cc1 ?
Choline anaer gr: inactive; Choline anaer gr early: 0.92

What do the screens show for `Cc1ccc(C)c(Cn2nnc3c(=O)[nH]c(C4CCCN(C(=O)CC5CCCC5)C4)nc32)c1` (configuration not stated)?
Choline anaer gr: inactive; Choline anaer gr early: 0.4

How did COc1ccc(C2=Nc3ccccc3N(Cc3cc(C)ccc3C)C(=O)C2)cc1 do in these assays?
Choline anaer gr: inactive; Choline anaer gr early: 0.9

How did CNC(=O)N1CCCC(c2cccc(C(=O)NCc3ccc(F)cc3F)c2)C1 (configuration not stated) do in these assays?
Choline anaer gr: inactive; Choline anaer gr early: 0.41

How did CCc1onc(C)c1C1CCCN1C(=O)NCC(C)C (configuration not stated) do in these assays?
Choline anaer gr: inactive; Choline anaer gr early: -0.59

What do the screens show for `COc1ccc(C(=O)CC2(O)C(=O)Nc3c(C)cc(C)cc32)cc1` (configuration not stated)?
Choline anaer gr: inactive; Choline anaer gr early: -0.34

Results for COc1ccc(-c2c(C)noc2C)cc1S(=O)(=O)N1CCc2ccccc2C1 ?
Choline anaer gr: inactive; Choline anaer gr early: 0.5

How did Cc1cc(OCC(=O)Nc2ccc3c(c2)NC(=O)CO3)ccc1Cl do in these assays?
Choline anaer gr: inactive; Choline anaer gr early: -0.16

What do the screens show for `CCN(CC)CCOCCOC(=O)C(CC)(CC)c1ccccc1`?
Choline anaer gr: inactive; Choline anaer gr early: -0.63

What do the screens show for `Cc1cc(N2CCCCC2C)n2nc(-c3ccccc3)nc2n1` (configuration not stated)?
Choline anaer gr: inactive; Choline anaer gr early: 0.58

Results for Nc1ccc(-c2nnc(-c3ccccc3)o2)cc1 ?
Choline anaer gr: inactive; Choline anaer gr early: -1.7

What do the screens show for `CC(=O)Nc1ccc(-c2noc(C3CCCN(C(=O)c4ccccc4)C3)n2)cc1` (configuration not stated)?
Choline anaer gr: inactive; Choline anaer gr early: -1.1

Results for O=C(CCc1nc2sc3c(c2c(=O)[nH]1)CCCCC3)Nc1ccc(F)cc1 ?
Choline anaer gr: inactive; Choline anaer gr early: 0.17

Results for O=C(Cn1cccc1-c1nnc(C2CCC2)o1)N1CCc2ccccc21 ?
Choline anaer gr: inactive; Choline anaer gr early: -0.68

How did Cc1cccc(NC(=O)Cc2csc(C)n2)c1 do in these assays?
Choline anaer gr: inactive; Choline anaer gr early: -1

Results for O=C(O)CC1Oc2ccccc2NC1=O (configuration not stated) ?
Choline anaer gr: inactive; Choline anaer gr early: 0.68

Results for CCCS(=O)(=O)N1CCN(c2ncnc3c2nnn3-c2ccccc2)CC1 ?
Choline anaer gr: inactive; Choline anaer gr early: -0.61

Results for Cn1c(=O)c(C(=O)N2CCN(c3ccccn3)CC2)nn(-c2ccc(F)cc2)c1=O ?
Choline anaer gr: inactive; Choline anaer gr early: -1.9

What do the screens show for `Cc1cccn2c(=O)c(C(=O)O)cnc12`?
Choline anaer gr: inactive; Choline anaer gr early: 0.03

What do the screens show for `O=C(Nc1nc(-c2ccc(Br)s2)ns1)c1cc(-c2cccs2)on1`?
Choline anaer gr: inactive; Choline anaer gr early: 0.53

What do the screens show for `CC(=O)N1CCCSc2ccc(S(=O)(=O)N3CCN(C4CCCC4)CC3)cc21`?
Choline anaer gr: inactive; Choline anaer gr early: -0.72

How did O=c1[nH]c2cc(Cl)ccc2c(O)c1-c1ccc(Oc2ccccc2)cc1 do in these assays?
Choline anaer gr: inactive; Choline anaer gr early: 0.38

Results for CC(C)(C)c1csc(-c2csc(S(=O)(=O)Nc3ccccc3F)c2)n1 ?
Choline anaer gr: inactive; Choline anaer gr early: -1.5

What do the screens show for `Cc1ccccc1C1CCCN1S(=O)(=O)c1cnc[nH]1` (configuration not stated)?
Choline anaer gr: inactive; Choline anaer gr early: -0.4

What do the screens show for `CCCc1cc(=O)n2nc(N3CCC(C(=O)NCC4CCCO4)CC3)sc2n1` (configuration not stated)?
Choline anaer gr: inactive; Choline anaer gr early: 0.68

How did CCCc1cc(C2CCCN2Cc2cn[nH]c2-c2cccc(OC)c2)no1 (configuration not stated) do in these assays?
Choline anaer gr: inactive; Choline anaer gr early: 0.38

Results for COc1ccc(CNC(=O)c2cn(C)c3c(=O)n(-c4ccccc4)c(=O)[nH]c23)cc1 ?
Choline anaer gr: inactive; Choline anaer gr early: 0.79

What do the screens show for `O=S1(=O)CCC(S(=O)(=O)N2CCN(C(c3ccccc3)c3ccccc3)CC2)C1` (configuration not stated)?
Choline anaer gr: inactive; Choline anaer gr early: 1.3

Results for O=C(NC1CCCCC1)N1CCC(N2CCN(Cc3ccccc3)C(=O)C2=O)CC1 ?
Choline anaer gr: inactive; Choline anaer gr early: 0.73

Results for COCC(=O)N1CCCN(c2ccc(=O)n(-c3ccccc3)n2)CC1 ?
Choline anaer gr: inactive; Choline anaer gr early: -0.56

Results for O=C(Cn1c(=O)cc(C(=O)NCc2ccccc2)c2ccccc21)Nc1cccc(Cl)c1 ?
Choline anaer gr: inactive; Choline anaer gr early: -0.69

Results for COc1ccc(OC)c(CNC(=O)c2nnc(C(=O)Nc3cccc(Cl)c3)s2)c1 ?
Choline anaer gr: inactive; Choline anaer gr early: -0.74

What do the screens show for `CCn1c(Cn2cccn2)nc2cc(NC(=O)c3cccc(C)c3)ccc21`?
Choline anaer gr: inactive; Choline anaer gr early: 0.9

How did COC(=O)c1sccc1N1Cc2ccncc2C1=O do in these assays?
Choline anaer gr: inactive; Choline anaer gr early: -0.54

How did CCCc1nnc2n1NC(c1ccc(CC)cc1)C(C(=O)Nc1ccc(C)cc1)S2 (configuration not stated) do in these assays?
Choline anaer gr: inactive; Choline anaer gr early: -0.6

What do the screens show for `COc1ccccc1N(Cc1nc2nc(C)cc(C)n2n1)C(=O)C(C)(C)C`?
Choline anaer gr: inactive; Choline anaer gr early: -0.15

How did Cc1cc(O)c(-c2ccnc3cc(-c4ccccc4)nn23)cc1Cl do in these assays?
Choline anaer gr: inactive; Choline anaer gr early: 0.96

What do the screens show for `CC1(C(=O)O)NCCc2cc(O)c(O)cc21` (configuration not stated)?
Choline anaer gr: inactive; Choline anaer gr early: 0.04

Results for COC(=O)c1ccc(-c2c(NCc3ccccc3)oc3c2c(=O)n(C)c(=O)n3C)cc1 ?
Choline anaer gr: inactive; Choline anaer gr early: 1.3

How did CC(C)Oc1ccc(CNS(=O)(=O)c2cc(-c3nc(C(C)(C)C)cs3)cs2)cc1 do in these assays?
Choline anaer gr: inactive; Choline anaer gr early: -0.64

Results for O=c1[nH]c(=O)n(Cc2cccnc2)c2c1CN(C1CCCC1)CN2 ?
Choline anaer gr: inactive; Choline anaer gr early: 0.14

What do the screens show for `Cc1cccc(CNC(=O)CN2C(=O)CSc3ncccc32)c1`?
Choline anaer gr: inactive; Choline anaer gr early: -0.74

What do the screens show for `CCCCN(CC)CCNC(=O)C1=C(C)C(=O)OC12CCCCC2`?
Choline anaer gr: inactive; Choline anaer gr early: -0.39

What do the screens show for `CCC(C)n1nnc2cc(S(=O)(=O)N(C)CC(=O)N3CCN(c4cc(C)ccc4C)CC3)ccc21` (configuration not stated)?
Choline anaer gr: inactive; Choline anaer gr early: 0.59

What do the screens show for `O=C(NC1CCCC1)C1CCN(c2ccc(Cl)cc2)C1=O` (configuration not stated)?
Choline anaer gr: inactive; Choline anaer gr early: -0.29

Results for CCn1c(SCc2nc(-c3cccc(Cl)c3)no2)nc2cc3c(cc2c1=O)OCO3 ?
Choline anaer gr: inactive; Choline anaer gr early: -0.14

How did Cc1c(C(=O)NC2CCC(C)CC2)oc2c1-c1[nH]ncc1CC2 (configuration not stated) do in these assays?
Choline anaer gr: inactive; Choline anaer gr early: -0.9

How did Cc1cc(C)n(CCc2nc3c4ccccc4n(CC(=O)Nc4ccc(Cl)cc4F)c(=O)n3n2)n1 do in these assays?
Choline anaer gr: inactive; Choline anaer gr early: -0.15

What do the screens show for `O=C(Nc1ccc(Br)cc1)N1CCC2(CC1)Nc1ccccc1-n1cccc12`?
Choline anaer gr: inactive; Choline anaer gr early: -0.78

Results for COc1cccc(NC(=O)N2CCCC2c2cc(C)no2)c1 (configuration not stated) ?
Choline anaer gr: inactive; Choline anaer gr early: 0.11

What do the screens show for `COc1ccc(NC(=O)c2ccc(Cn3nc(C)c(S(=O)(=O)N(C)C)c3C)cc2)cc1`?
Choline anaer gr: inactive; Choline anaer gr early: 1.1

Results for COc1ccc(OC)c(CNC(=O)CSc2nnc(C(=O)Nc3ccc(Cl)cc3)s2)c1 ?
Choline anaer gr: inactive; Choline anaer gr early: 0.2

What do the screens show for `Cc1cc(NC2CCCCC2)n2nc(C)c(-c3ccc(F)cc3)c2n1`?
Choline anaer gr: inactive; Choline anaer gr early: 0.55

How did CC(CC(=O)N1CCC(Cc2ccccc2)CC1)CC1=NS(=O)(=O)c2ccccc2N1 (configuration not stated) do in these assays?
Choline anaer gr: inactive; Choline anaer gr early: -0.16

11 entries out of the list, sorted by formula weight, falling:
What do the screens show for `CCC(C)n1nnc2cc(S(=O)(=O)N(C)CC(=O)N3CCN(c4cc(C)ccc4C)CC3)ccc21` (configuration not stated)?
Choline anaer gr: inactive; Choline anaer gr early: 0.59

How did Cc1cc(C)n(CCc2nc3c4ccccc4n(CC(=O)Nc4ccc(Cl)cc4F)c(=O)n3n2)n1 do in these assays?
Choline anaer gr: inactive; Choline anaer gr early: -0.15

Results for COc1ccc(OC)c(CNC(=O)CSc2nnc(C(=O)Nc3ccc(Cl)cc3)s2)c1 ?
Choline anaer gr: inactive; Choline anaer gr early: 0.2

Results for CCn1c(SCc2nc(-c3cccc(Cl)c3)no2)nc2cc3c(cc2c1=O)OCO3 ?
Choline anaer gr: inactive; Choline anaer gr early: -0.14

How did CC(CC(=O)N1CCC(Cc2ccccc2)CC1)CC1=NS(=O)(=O)c2ccccc2N1 (configuration not stated) do in these assays?
Choline anaer gr: inactive; Choline anaer gr early: -0.16

What do the screens show for `O=C(Nc1ccc(Br)cc1)N1CCC2(CC1)Nc1ccccc1-n1cccc12`?
Choline anaer gr: inactive; Choline anaer gr early: -0.78

What do the screens show for `Cc1cc(NC2CCCCC2)n2nc(C)c(-c3ccc(F)cc3)c2n1`?
Choline anaer gr: inactive; Choline anaer gr early: 0.55

What do the screens show for `CCCCN(CC)CCNC(=O)C1=C(C)C(=O)OC12CCCCC2`?
Choline anaer gr: inactive; Choline anaer gr early: -0.39

What do the screens show for `Cc1cccc(CNC(=O)CN2C(=O)CSc3ncccc32)c1`?
Choline anaer gr: inactive; Choline anaer gr early: -0.74

What do the screens show for `O=C(NC1CCCC1)C1CCN(c2ccc(Cl)cc2)C1=O` (configuration not stated)?
Choline anaer gr: inactive; Choline anaer gr early: -0.29

Results for COc1cccc(NC(=O)N2CCCC2c2cc(C)no2)c1 (configuration not stated) ?
Choline anaer gr: inactive; Choline anaer gr early: 0.11
